D2 PAM: human D2 receptor positive allosteric modulation | 360,000 tested, 0.23% active | DiscoveRx D2 beta-arrestin cells, luminescence, 90 min; 100% = 57 uM dopamine signal | potentiation, % (concentration not given with the values) | AID 624464 | P14416; active = potentiation of 50% or more; inconclusive = 30% to 50%; inactive = 30% or less;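 note: compound concentration not given in the record; tested on top of an EC20 dose of dopamine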
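PathHunter beta-arrestin assay in DiscoveRx D2 cells. Compounds were added with an EC20 of dopamine (50 nM final) for 90 min at 37 deg C. Luminescence was read 1 h after detection reagent, with 57 uM dopamine as the EC100 control.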
PINK1 expr mod: modulators of PINK1 expression | PINK1 immunofluorescence, high-content cytometry, 24 h | Potency, µM (series often up to 76.6 µM), for the others: at the highest dose activation (PINK1 increase), actives largely listed as activators | 410,000 tested, 0.2% active | AID 624263; active = well fitted activation curve with a large enough effect; inconclusive = small, poorly fitted or top-dose-only effect; inactive = flat fitted curve, though single readings scatter; cell line not stated here;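 note: potency is the fitted concentration of half-maximal effect; % of control where 0% means no effect; nearly all actives have a fitted effect of over 65% in size; a mitochondrial uncoupler was the plate control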
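A stable cell line was treated with compounds at 5 concentrations for 24 hours, with CCCP as control. PINK1 levels and mitochondrial localization were measured by immunofluorescence with mitochondrial, cell and nuclear markers after fixation, read by laser-scanning cytometry.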
Sfp inh: blocks B. subtilis Sfp PPTase activity; Q9F4F7; Biochemical Sfp PPTase activity, qHTS; Potency, µM, for the others: max response, negative = inhibition, usual class: inhibitors; 310,000 tested, 3.5% active; AID 1490; active = well fitted inhibition curve with a large enough effect; inconclusive = small, poorly fitted or top-dose-only effect, or another doubt; inactive = no such curve, though single readings can be large or run the other way;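 note: the enzyme is Sfp with the accession as filed and its product quenches rhodamine fluorescence; potency is the fitted concentration of half-maximal effect; 0% = enzyme reaction without inhibitor and -100% = no enzyme wells; top concentration of the series not given in the record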
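Compounds were incubated with enzyme (final 15 nM) for 15 min at room temperature before substrate addition started the reaction. Fluorescence at 525 nm excitation, 598 nm emission was recorded immediately and after 30 minutes.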
TRPV1 PAM: potentiators of human vanilloid receptor 1 (TRPV1) | Q8NER1 | TRPV1-expressing cells, Fluo-8 calcium influx, capsaicin EC20 potentiation; host cell line not named in the record; control for the full effect not named in the record | potentiation, % at 8.33 µM | 320,000 tested, 0.02% active | AID 540277; active means potentiation above 80%; inconclusive means 30% to 80%; inactive means below 30%; note: 0% is about no effect
Target sequence (Q8NER1 whole entry, looked up): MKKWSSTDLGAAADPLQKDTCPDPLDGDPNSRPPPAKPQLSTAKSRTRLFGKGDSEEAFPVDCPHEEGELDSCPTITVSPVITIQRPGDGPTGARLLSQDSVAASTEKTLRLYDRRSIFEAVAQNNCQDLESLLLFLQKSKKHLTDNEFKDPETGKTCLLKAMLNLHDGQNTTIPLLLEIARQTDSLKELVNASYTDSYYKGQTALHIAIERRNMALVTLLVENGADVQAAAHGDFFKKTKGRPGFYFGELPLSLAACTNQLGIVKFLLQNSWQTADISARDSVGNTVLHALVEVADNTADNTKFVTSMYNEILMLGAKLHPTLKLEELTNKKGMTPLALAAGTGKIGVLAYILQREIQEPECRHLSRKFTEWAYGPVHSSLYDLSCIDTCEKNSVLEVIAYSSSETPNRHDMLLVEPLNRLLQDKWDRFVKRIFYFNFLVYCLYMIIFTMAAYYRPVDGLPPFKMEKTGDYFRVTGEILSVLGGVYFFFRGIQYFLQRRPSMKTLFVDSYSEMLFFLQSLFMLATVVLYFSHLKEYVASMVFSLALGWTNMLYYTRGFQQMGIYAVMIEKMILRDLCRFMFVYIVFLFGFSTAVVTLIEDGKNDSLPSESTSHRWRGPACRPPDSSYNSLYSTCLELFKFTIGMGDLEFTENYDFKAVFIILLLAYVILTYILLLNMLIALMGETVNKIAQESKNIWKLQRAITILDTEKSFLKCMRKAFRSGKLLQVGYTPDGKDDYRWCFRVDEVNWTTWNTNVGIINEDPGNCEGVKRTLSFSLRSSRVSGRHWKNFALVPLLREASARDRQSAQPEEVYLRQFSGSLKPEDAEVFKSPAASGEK
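Fluo-8 calcium influx in TRPV1-expressing cells, kinetic read (ex 480/em 520 nm). Compound added and read 3 min for agonist activity, followed by capsaicin at EC20 final and 2 min further read for enhancement.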
D2 ag: agonists of human D2 dopamine receptor (beta-arrestin); P14416; DiscoveRx PathHunter D2 beta-arrestin, luminescence, 90 min; 100% = 57 uM dopamine signal; activation, % (test concentration not listed); 360,000 tested, 0.084% active; AID 624465; in the data active = activation above about 40%; inconclusive = about 15% to 40%; inactive = below about 15%; note: compound concentration not given in the record; the text of the record calls up to 30% inactive
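Agonist mode: compounds alone added to overnight-plated D2 PathHunter cells for 90 min at 37 C, with 57 uM final dopamine (EC100) defining full response. Beta-arrestin recruitment detected by chemiluminescent reagent, read after 1 h at ambient temperature.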
Six1-Eya2 inh: inhibitors of human Six1/Eya2 interaction | Q15475+O00167 | AlphaScreen GST-Six1/His-Eya2 binding, biochemical; hits give low values; control for the full effect not named in the record | activity change, % (test concentration not listed) | 360,000 tested, 0.56% active; in the data active = activity change below about -65%; inconclusive = about -30% to -65%; inactive = above about -30%; note: % is set by controls: 0 for no effect and ±100 for the full control effect; compound concentration not given in the record
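Homogeneous AlphaScreen proximity assay pairing GST-Six1 with His-tagged Eya2 (added as 5X mix: 250 nM and 500 nM) in 50 mM Tris pH 8.0, 300 mM NaCl, 1 mM TCEP. Glutathione donor and nickel acceptor beads; 1 h, 37 °C, dark.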
CtBP-E1A inh: blocks the CtBP interaction with E1A | AID 651724 | 340,000 tested, 0.49% active | AlphaScreen GST-E1A/His-CtBP binding, 1536-well; hits give low values; control for the full effect not named in the record | activity change, % (no concentration beside the values); in the data active means activity change below about -65%; inconclusive means about -30% to -65%; inactive means above about -30%; note: % is set by controls: 0 for no effect and ±100 for the full control effect; compound concentration not given in the record
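Protein mix (5X: 125 nM each GST-E1A, His-CtBP) was incubated with pinned compound 2 h at 37 deg C in dark, in 50 mM Tris pH 8.0 buffer with 300 mM NaCl. Glutathione donor and nickel acceptor beads followed; AlphaScreen signal read after 1 h.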
An asterisk follows results filed as active; ? = inconclusive; · = no result given; & = joins results of further samples; [ ] = another dose, or the depositor's remark.

SMILES	D2 PAM	PINK1 expr mod	Sfp inh	TRPV1 PAM	D2 ag	Six1-Eya2 inh	CtBP-E1A inh
CC#CC(=O)N1CCCC(C(=O)c2ccc(SC)cc2)C1 (stereo not drawn)	-17	-1.5%	15%	-18	-1.8	11	·
CCCc1nc2sc3ccccc3c(=O)c2c(=O)n1Cc1ccc(OC)cc1	-5	21%	?	-14	-1.5	-2	0
O=C(Nc1cccc(S(=O)(=O)N2CCOCC2)c1)c1cc2c(s1)CCC2	-6	-1.4%	-2%	2	-3.1	-3	-7
COc1ccc(NC(=O)CSc2nc3ccc(Nc4nc(N5CCOCC5)nc(N5CCOCC5)n4)cc3s2)cc1	-2	-1.2%	-28%	-18	2.7	19	·
Cc1ccccc1C(=O)NC(=S)Nc1ccccc1[N+](=O)[O-]	-10	2.0%	-9%	-5	-3.8	-10	-6
CC(Oc1ccc(-c2ccccc2)c(F)c1)c1ccn(S(=O)(=O)c2ccc(Cl)cc2)n1 (stereo not drawn)	-17	12%	17%	7	-0.1	15	18
Clc1ccc(OCc2nn3c(C4CCCCC4)nnc3s2)cc1	-5	-1.3%	20µM*	10	0.3	9	0
NC(=O)/C=C\C(=O)Nc1cccc(C(F)(F)F)c1	-13	8.4%[38.3 µM]	-16%	3	1.2	-5	-1
COc1ccc(S(=O)(=O)N(CCc2ccccc2)CC(=O)NCCCO)cc1	-9	·	4%	-4	-0.9	0	3
Cc1ccc(C(C(=O)NC(C)(C)C)N(Cc2ccccc2)C(=O)c2snc(C(N)=O)c2N)o1 (stereo not drawn)	-6	-0.4%	-2%	-10	3.8	-3	0
O=C(OCC(=O)N1CCN(c2ccccc2)CC1)c1cc(Cl)ccc1[N+](=O)[O-]	10	-1.7%	-9%	-14	1.9	-18	-15
O=C1COc2ccc(C(=O)COC(=O)CCCOc3ccccc3)cc2N1	-13	0.2%	·	·	-1.9	8	-18
Cc1cccc(C(=O)c2cnc3ccccc3c2-c2ccccc2)c1	10	-1.7%	?	-30	-4.5	0	5
COc1ccc(N2CC(C(=O)Nc3cc(C(F)(F)F)ccc3N3CCCC3)CC2=O)c(OC)c1 (stereo not drawn)	-67	5.1%	·	-3	-5.3	-10	3
CCOc1ccc(-c2nc(C#N)c(NCc3ccc4c(c3)OCO4)o2)cc1	-8	5.9%	-12%	-6	-2.0	0	-2

Results in D2 PAM (four entries from above):
molecule | D2 PAM
Clc1ccc(OCc2nn3c(C4CCCCC4)nnc3s2)cc1 | -5
CC#CC(=O)N1CCCC(C(=O)c2ccc(SC)cc2)C1 (stereo not drawn) | -17
O=C(Nc1cccc(S(=O)(=O)N2CCOCC2)c1)c1cc2c(s1)CCC2 | -6
COc1ccc(N2CC(C(=O)Nc3cc(C(F)(F)F)ccc3N3CCCC3)CC2=O)c(OC)c1 (stereo not drawn) | -67

(list continues)
SMILES	D2 PAM	PINK1 expr mod	Sfp inh	TRPV1 PAM	D2 ag	Six1-Eya2 inh	CtBP-E1A inh
COCCNC(=O)CSc1nc(N)c(NC(=O)c2ccco2)c(=O)[nH]1	-1	-0.5%	·	·	-3.3	2	12
CC1(C(=O)OCC(=O)NC(=O)NCc2ccccc2)CC1(Cl)Cl (stereo not drawn)	0	5.3%	-4%	25	-1.6	1	8
Cc1nc(-c2ccc(C(=O)Nc3cccc(F)c3)cc2)cs1	-6	2.7%	-4%	5	1.1	-2	1
O=C(CSc1nccc(=O)[nH]1)Nc1ccc(Br)c(Cl)c1	-7	-3.0%	11%	5	-2.9	-13	-4
CCCC(=O)Nc1nnc(Sc2ccc(N(C)C)cc2)s1	-21	4.0%	7%	-9	0.3	14	-2
O=C1C(=O)N(Cc2cccnc2)C(c2cccc(O)c2)/C1=C(\O)c1ccc2c(c1)OCCO2 (stereo not drawn)	-8	0.2%	5%	-21	-1.6	-13	·
Cc1cccc(C)c1OCC(O)CN1CCN(c2ccccc2)CC1 (stereo not drawn)	-22	11%	8%	16	?	-10	-5
Cc1ccc(S(=O)(=O)N2CCC(C(=O)N3CCC[C@H]3C(=O)NCc3ccco3)CC2)cc1	-10	0.5%	-3%	12	-3.5	11	20
C/C(=N\OCC(=O)Nn1c(C)nc2ccccc2c1=O)c1ccccc1	2	-0.5%	4%	8	-2.4	-7	-1
CCN(CC)CCCN1C(=O)C(=O)/C(=C(/O)c2ccc(C)cc2)C1c1ccccn1 (stereo not drawn)	-4	-1.2%	?	-6	-0.7	0	-2
NC(=O)c1ccccc1NC(=O)c1cc(S(=O)(=O)N2CCCCC2)ccc1N1CCOCC1	5	-0.2%	·	-2	1.2	-1	-3
Cc1cccc(NC(=O)CCS(=O)(=O)c2ccc(Cl)cc2)c1	-20	2.4%	17%	-16	-4.7	2	3
Cc1cc2cc3c(cc2nc1SCc1ccc(C(=O)O)cc1)OCCO3	2	0.1%	-15%	16	1.0	-8	3
Cc1ccc(C(=O)Nc2ccc(F)cc2F)o1	-13	-0.2%	0%	-8	0.9	7	5
COc1cc(C(=O)O/N=C(\N)c2ccc([N+](=O)[O-])cc2)cc(OC)c1OC	15	5.4%	1%	-10	8.5	-1	-8
CCc1ccccc1NC(=O)Cn1cccc1C1=NC(c2ccccc2)CO1 (stereo not drawn)	-14	?	8%	-5	-1.6	3	3
CC(C)c1cc(C(F)(F)F)n2nc(C(=O)O)cc2n1	-2	4.7%[38.3 µM]	14%	5	-3.6	0	-1
COc1ccc(CN2CCNC(=O)C2CC(=O)N2CCCN(C(C)=O)CC2)c(OC)c1 (stereo not drawn)	-9	1.9%	7%	4	-2.4	1	0
Cc1ccc(S(=O)(=O)N2CCCC2CNC(=O)c2ccc3c(c2)OCO3)cc1 (stereo not drawn)	-4	0.5%	·	15	-5.4	-11	-21
COc1ccc([C@H]2N[C@]3(CCCN(Cc4ccc(C)cc4)C3=O)[C@H]3C(=O)N(C)C(=O)[C@@H]23)cc1	-10	0.1%	·	·	-4.0	3	4
CN(CC(=O)NC1CCCCCC1)S(=O)(=O)c1ccc2c(c1)n(C)c(=O)c(=O)n2C	-6	-0.9%	9%	-3	-5.8	-3	3
CC(Sc1sc(=S)sc1SC(C)C(=O)O)C(=O)O (stereo not drawn)	-7	?	79µM*	-7	-1.5	-3	0
CN(C)C(CNC(=O)c1ccc2c(c1)S(=O)(=O)c1ccccc1C2=O)c1ccco1 (stereo not drawn)	-9	1.6%	16%	-2	-19	-14	2
CCN(CC)c1ccc(NC(=O)Cn2ncc3c(C)n(Cc4ccccc4F)c(C)c3c2=O)c(C)c1	-2	7.3%&11%	-16%	-6	-0.9	2	-17
COc1cccc(N2CCN(S(=O)(=O)c3ccc4c(c3)NC(=O)CS4)CC2)c1	-2	1.7%	2%	-5	2.1	-8	-12
CCC1(C(=O)OC)NC(c2ccccc2OC)C2C(=O)N(C)C(=O)C21 (stereo not drawn)	1	-0.6%	1%	1	-0.9	6	4
Nc1nc(NCC2CCCO2)nc(Nc2cccc(F)c2)c1[N+](=O)[O-] (stereo not drawn)	1	7.9%	22%	·	-0.7	8	12
Cc1ccc(S(=O)(=O)NN=CC=CC=NNS(=O)(=O)c2ccc(C)cc2)cc1	-8	-0.1%	·	·	-1.6	-4	5
CCOC(=O)c1ccc(NC(=O)C(=O)NCc2ccncc2)cc1	-4	2.8%[38.3 µM]	9%	-17	-1.1	1	-9
COc1cc(C#Cc2c(-c3cncn3C)n(C)c3ccc(-c4cc(OC)c(OC)c(OC)c4)cc23)cc(OC)c1	4	-1.7%	·	·	4.0	-23	-26
COc1ccc(CNC(=O)CCSCc2ccc(C)cc2)cc1	-32	1.5%	18%	11	8.3	-8	-14
COc1ccc(C2C(C(=O)c3sc(C)nc3C)=C(O)C(=O)N2CCN(C)C)cc1 (stereo not drawn)	-4	3.8%	17%	-18	-1.5	3	0
Cc1ccc([N+](=O)[O-])cc1NC(=O)Nc1cccc(F)c1	-26	?	-7%	-4	-5.7	8	·
CCCCN(C(=O)CCC(=O)Nc1cc(C)on1)C(C(=O)NC1CCCC1)c1ccccc1OCC (stereo not drawn)	-7	-0.2%	10%	-2	-0.4	-7	4
Cc1ccc(-n2nnc(-c3cccnc3)n2)cc1	-8	-0.4%	·	·	-0.9	1	8
CC(=O)Nc1ccc(NC(=O)C(Sc2ccccc2)c2ccccc2)cc1 (stereo not drawn)	-5	9.0%	10%	1	0.8	1	-3
Cn1c(=O)c2c(-c3ccccc3)n(-c3cc(C(=O)O)ccc3O)cc2n(C)c1=O	-1	1.2%	·	·	-6.2	-1	0
COc1cc2c(c(O)c1OC)-c1c(cc(OC)c(OC)c1OC)C[C@@H](C)[C@@H](C)C2	-5	0.3%	10%	-5	-3.1	-1	-1
CCOc1ccc(NC(=O)CSc2nnc(-c3ccncc3)n2CC2CCCO2)cc1 (stereo not drawn)	7	-0.6%	-9%	15	-2.0	4	4
CCN(CC)CCN1C(=O)C(O)=C(C(C)=O)C1c1ccc(OC)c(OC)c1 (stereo not drawn)	-22	0.3%	-8%	-7	-2.6	-1	7
C/C(Nc1ccccc1)=C(/C#N)C(N)=O	-8	3.2%[38.3 µM]	8%	3	-0.4	2	2
COc1ccc(Cl)cc1NC(=O)C1Cc2ccccc2CN1S(C)(=O)=O (stereo not drawn)	-18	-0.3%	1%	-20	-7.4	-5	0
CC(CNC(=O)c1ccc(C#N)cc1)NC(=O)c1ccc(C#N)cc1 (stereo not drawn)	-3	0.5%	6%	-9	-1.7	3	-1
O=C(OCc1cn([C@@H]2CN(C(=O)C3CCCCC3)[C@@H](c3ccccc3)C[C@H]2O)nn1)c1ccccc1	0	3.9%	·	·	-9.4	1	2
CCC(C)NC(=O)CSc1nc2scc(-c3ccccc3)c2c(=O)[nH]1 (stereo not drawn)	-4	-0.5%	11%	17	-0.1	-8	0
Cc1cc(-c2ccccc2)nc(N(C)NC(=O)C(C)(C)C)c1S(C)(=O)=O	-29	-1.3%	16%	-5	-1.8	8	-13
CC/S(=N\S(=O)(=O)c1ccc(C)cc1)c1ccccc1 (stereo not drawn)	-22	0.8%	16%	6	-4.3	8	·
Fc1cccc(Cc2c(-c3ccccc3)nc3c4ccccc4ccn23)c1	·	1.9%	·	·	·	13	-20

Source: PubChem BioAssay (National Center for Advancing Translational Sciences (NCATS))
